From PubChem BioAssay
Rango release inh: inhibition of RanGTP-driven Rango-importin beta dissociation; O95149+P62826; Biochemical FRET Rango-importin beta, RanGTP-induced dissociation; Potency, µM (series often up to 46.1 µM), for the others: at the top dose activity change, negative = inhibition; actives 0.071% (n = 340,000); active means falling FRET ratio curve, often poorly fitted, with flat reads before Ran was added; inconclusive means other falling curves, or compound fluorescence or quenching; inactive means flat or rising ratio curve;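 note: potency is the fitted concentration of half-maximal effect; % of control where 0% means no effect; nearly all actives have a fitted effect of over 45% in size; -100% = wells without RanGTP and RCC1; the record marks most hits as doubtful in a second field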
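Rango FRET biosensor (snurportin-1 IBB flanked by N-terminal EYFP and C-terminal CFP10) at 0.1 uM, with 0.25 uM importin beta in PBS, 1mM DTT, 0.02% Tween-20, 0.1% BSA. 0.6 uM Ran, 2mM GTP and 0.2 uM RCC1 were then added for 45 min at room temperature. Inhibition read as loss of FRET rise.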
miR-21 FLuc: raises the signal of a miR-21 reporter. HeLa miR-21 FLuc reporter, luciferase, 48 h. Potency, µM (titrated, usually from 38.3 µM), without a hit: at the highest dose reporter change, positive = more light. 340,000 tested, under 10 active; active = well fitted rising curve with a large enough effect; inconclusive = small, poorly fitted or top-dose-only effect; inactive = no such curve, though single readings can be large or run the other way;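 note: % of control where 0% means no effect; miR-21 action dims this reporter so a rising signal means less miR-21 action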
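Using DMEM plus 10% FBS, HeLa miR-21-FLuc cells are incubated with test compounds (final up to about 40uM) for 48 hours; firefly luciferase signal is then imaged following reagent-mediated lysis.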
GLA inh pH 4.5: blocks human alpha-galactosidase A at pH 4.5; P06280; purified enzyme, 4-MU-alpha-Gal fluorescence, pH 4.5; activity change, negative = inhibition, % at 105 µM; 230,000 tested, under 10 active; AID 1467; inconclusive = small, poorly fitted or top-dose-only inhibition, or a rising curve; inactive = flat fitted curve, though single readings scatter; no compound was filed as active;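 note: 0% = full activity with enzyme and -100% = basal without enzyme; dose as in the result columns while the protocol names 77 µM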
Rango-impB inh: inhibitors of Rango-importin beta complex formation | Q14974 | Rango CFP/YFP FRET sensor + importin beta, 45 min | Potency, µM (doses to about 92.2 µM), inactives show top-dose inhibition of complex formation | actives 0.031% (n = 340,000); active = rising FRET ratio curve, often small or poorly fitted; inconclusive = mostly compound fluorescence or quenching in the first reads; inactive = flat curves in all reads;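 note: potency is the fitted concentration of half-maximal effect; 0% = DMSO wells and 100% = buffer wells lacking importin beta; nearly all actives have a fitted effect of over 15% in size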
Target sequence (Q14974 whole entry, looked up): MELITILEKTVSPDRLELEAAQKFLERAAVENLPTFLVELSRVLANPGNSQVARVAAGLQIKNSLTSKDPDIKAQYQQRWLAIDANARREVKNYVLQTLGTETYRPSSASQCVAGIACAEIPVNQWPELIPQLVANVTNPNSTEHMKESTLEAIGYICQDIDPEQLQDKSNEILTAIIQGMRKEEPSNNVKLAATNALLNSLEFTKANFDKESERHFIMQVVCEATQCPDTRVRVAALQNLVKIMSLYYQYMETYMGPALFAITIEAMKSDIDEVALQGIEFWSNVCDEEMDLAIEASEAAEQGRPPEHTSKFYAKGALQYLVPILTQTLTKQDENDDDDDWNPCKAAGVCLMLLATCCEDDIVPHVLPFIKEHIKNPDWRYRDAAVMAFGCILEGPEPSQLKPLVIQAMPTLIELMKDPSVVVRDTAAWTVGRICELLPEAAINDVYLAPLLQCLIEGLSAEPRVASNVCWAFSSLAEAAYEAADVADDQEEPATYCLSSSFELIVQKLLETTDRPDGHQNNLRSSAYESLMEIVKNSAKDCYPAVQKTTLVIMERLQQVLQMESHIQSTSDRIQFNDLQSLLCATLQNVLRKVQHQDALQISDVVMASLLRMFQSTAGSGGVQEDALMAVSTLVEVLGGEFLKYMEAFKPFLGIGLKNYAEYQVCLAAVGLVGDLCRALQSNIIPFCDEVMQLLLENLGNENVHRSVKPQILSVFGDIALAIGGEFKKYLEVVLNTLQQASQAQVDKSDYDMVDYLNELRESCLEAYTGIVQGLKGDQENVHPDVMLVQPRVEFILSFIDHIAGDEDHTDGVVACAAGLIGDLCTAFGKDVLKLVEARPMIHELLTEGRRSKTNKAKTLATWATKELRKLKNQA
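FRET biosensor Rango (snurportin 1 IBB between N-terminal EYFP and C-terminal Cerulean), 50 nM in PBS/1 mM DTT/0.02% Tween-20/0.1% BSA, preincubated 5 min RT with compound; 0.125 microM importin beta added, 45 min RT, CFP/YFP FRET ratio read.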
Starred values were filed as active, the others as inactive; ? = inconclusive; nt = no result given; & = joins results of further samples. The list is partial (hit frequency here may not be typical).

SMILES	Rango release inh	miR-21 FLuc	GLA inh pH 4.5	Rango-impB inh
CCOc1ccccc1-c1cc(C(=O)N/N=C/c2ccc(O)c(OC)c2)c2ccccc2n1	-6.1%	13.0%	?	?
C=CCN1C(=O)N(c2ccc(Cl)cc2)C(=O)C1CC(=O)Nc1ccc(F)cc1 (centres undefined)	1.2%	-2.2%	-5.3	4.0%
COc1ccc(CCNC(=O)C(=O)NCC2CCCN2S(=O)(=O)c2ccccc2)cc1OC (centres undefined)	-1.7%	nt	nt	3.5%
CC(=O)c1ccc(-n2nnnc2SCC(=O)N2CCc3ccccc3C2)cc1	-1.3%	-6.0%	-0.7	-2.1%
O=C(COC(=O)CCCCCN=C1NS(=O)(=O)c2ccccc21)Nc1ccc(Cl)c(Cl)c1	?	-2.0%	-5.3	-2.2%
COc1ccccc1NC(=O)c1ccc(S(=O)(=O)N2CCOCC2)cc1	0.7%	-2.9%	-1.6	0.3%
Cc1c(C(=O)OCC(=O)N2CC(=O)Nc3ccccc32)oc2ccccc12	-1.5%	-7.3%	9.7	-1.1%
OCCN1CCN(CC#CCC(c2ccccc2)c2ccccc2)CC1	12.2%	0.0%	-7.9	1.9%
O=S(=O)(c1ccccc1)N1CCN(C(=S)Nc2ccc(Br)cc2)CC1	0.0%	2.0%	nt	-3.0%
CN(C)c1ccc(/C=C2/SC(=O)N(CCN=C3NS(=O)(=O)c4ccccc43)C2=O)cc1	-19.7%	-13.5%	18.4	?
CN(CC(=O)Nc1ccccc1N1CCCC1)S(=O)(=O)c1ccc(F)cc1	-0.5%	nt	nt	-5.5%
COc1cc([N+](=O)[O-])cc(/C=N/NC(=O)CSc2ccccn2)c1O	-12.9%	1.7%	1.4	-0.2%
CCOc1ccc(NC(=O)CN(C)C(=O)CCCOc2ccc(Cl)c(C)c2)cc1OCC	-7.8%	11.6%	nt	0.8%
CCn1c(COc2cc(C)ccc2C(C)C)nnc1SCC(=O)Nc1nccs1	-3.5%	-0.9%	-15.2	-0.3%
CC(C)n1c(SCC(=O)c2ccc3c(c2)OCCO3)nc2c1c(=O)n(C)c(=O)n2C	14.0%	-6.5%	3.1	-1.9%
O=C(O)c1cc(S(=O)(=O)NCc2ccco2)c(Cl)cc1Cl	-2.5%	0.3%	-4.5	-2.1%
C(=N\Nc1nc2ccccc2[nH]1)/c1cccc2cccnc12	-17.4%	-31.5%	2.1	?
COC(=O)C1=C(C)N(Cc2ccccc2)C(=NCCc2ccccn2)N[C@H]1c1cccc(F)c1	0.5%	18.5%&17.2%	nt	2.2%
CCc1ccc(-c2nc(CN3CCC(C(=O)NCCN(CC)c4ccccc4)CC3)c(C)o2)cc1	5.2%	1.8%	-10.4	0.1%
COc1ccc(C)cc1NC(=O)C1CCCN(S(=O)(=O)c2cnc[nH]2)C1 (centres undefined)	3.9%	0.9%	0.1	3.7%
COCC1CCCN(Cc2cn(Cc3ccccc3)nc2-c2cc3ccccc3o2)C1 (centres undefined)	-10.0%	-3.1%	-11.5	-1.4%
CC(C)(C)c1ccc(C(=O)NC(=S)N2CCCCCC2)cc1	-9.2%	-0.2%	nt	-1.1%
Cc1ccc(C(=O)Nc2cccc3ccccc23)o1	19.9%	nt	nt	-0.1%
CCCOc1ccc(-c2c(C(=O)N/N=C/c3ccncc3)nnn2-c2nonc2N)cc1	-27.4%	-0.5%	nt	-3.8%
O=S(=O)(c1cccc2nsnc12)N1CCN(C/C=C/c2ccccc2)CC1	7.7%	-6.1%	2.4	-1.8%
C#Cc1ccc([C@@H]2C=C(C(=O)NCc3ccccc3)O[C@H](OCCCCO)C2)cc1	-0.3%	nt	nt	-0.3%
C/C(=N\NC(=O)c1nn(C)cc1Br)c1cccc(NC(=O)C2CCCC2)c1	?	-28.1%	-14.3	1.0%
O=C(COC(=O)C1CCN(S(=O)(=O)c2ccc3c(c2)OCCO3)CC1)Nc1cc(C(F)(F)F)ccc1Cl	-3.2%	-13.2%	-4.5	1.6%
Cc1ccc(-c2noc(CCCC(=O)NC3CCCC3)n2)cc1	12.1%	29.0%	nt	-0.5%
COc1ccc(S(=O)(=O)NCCSC(C)(C)C)cc1	-0.8%	-7.7%	-1.4	-0.2%
CCOC(=O)c1cnc2c(-c3ccccc3OC)c(C)nn2c1C	2.5%	-2.9%	11.9	-1.4%
CCOC(=O)N1CCN(C(=O)CCCn2c(=S)[nH]c3ccc(Br)cc3c2=O)CC1	-5.1%	-0.7%	10.1	-3.3%
O=C(Nc1ccc(Br)cc1)c1ccccc1CC[N+](=O)[O-]	3.3%	6.0%	8.1	-1.7%
Cc1cnc(C(=O)OCc2ccc(Br)cc2)cn1	-7.9%	0.6%	nt	2.8%
OCCCNc1nnc(-c2ccccc2)c2ccccc12	0.2%	-8.1%	nt	1.0%
CCc1ccc(NC(=O)Cn2cnc3c(=O)n(C)c(=O)n(C)c32)cc1	8.9%	0.7%	7.9	-1.5%

One compound at a time, as listed above. Values in the order: Rango release inh | miR-21 FLuc | GLA inh pH 4.5 | Rango-impB inh
C/C(=N\NC(=O)c1nn(C)cc1Br)c1cccc(NC(=O)C2CCCC2)c1 across the screens: ? | -28.1% | -14.3 | 1.0%
OCCCNc1nnc(-c2ccccc2)c2ccccc12 across the screens: 0.2% | -8.1% | nt | 1.0%
CCc1ccc(NC(=O)Cn2cnc3c(=O)n(C)c(=O)n(C)c32)cc1 across the screens: 8.9% | 0.7% | 7.9 | -1.5%

(more compounds)
SMILES	Rango release inh	miR-21 FLuc	GLA inh pH 4.5	Rango-impB inh
CC(C)(CNc1ccc([N+](=O)[O-])cc1C#N)N1CCOCC1	-0.2%	-2.9%	-11.5	6.1%
CN(C)/C=C1\N=C(c2cccnc2Oc2ccc(Cl)cc2)OC1=O	-12.6%	2.8%	-2.5	1.2%
CC(C)(C)n1nc2c(c1NC(=O)Cc1cccc3ccccc13)CS(=O)C2 (centres undefined)	-6.0%	-8.5%	-6.9	-1.0%
O=C(CN1C(=O)NC(Cc2ccccc2)C1=O)Nc1ccc(OC(F)F)cc1 (centres undefined)	4.7%	nt	nt	-1.0%
COc1cccc(CNC(=O)c2csc3c2CCCC3)c1	21.0%	-16.1%	nt	-0.6%
COc1ccc(S(=O)(=O)N=Nc2c(O)[nH]c3ccccc23)cc1	0.8%	-4.6%	2.5	-1.1%
O=C(N/N=C/C(Br)=C/c1ccccc1)c1cnccn1	7.6%	23.5%	-5.9	2.8%
CC(Oc1ccc(Cl)cc1)C(=O)N1CCN(C(=O)c2ccco2)CC1 (centres undefined)	9.3%	nt	nt	-1.2%
O=C(c1ccc(COc2ccc(F)cc2)o1)n1cccn1	2.0%	-4.2%	5.5	3.7%
CCCCSc1nc(O)c(C2OC(=O)c3c2ccc(OC)c3OC)c(=O)n1C (centres undefined)	-1.1%	-0.2%	-7.1	-0.4%
O=C(OC(C(=O)NC1CCCCC1)c1ccc(C(F)(F)F)cc1)c1ccco1 (centres undefined)	?	nt	nt	0.2%
COc1ccc(NC(=O)c2nnn(CC(=O)Nc3ccccc3OC)c2N)c(OC)c1	0.0%	-29.7%	nt	-5.0%
O=C(Nc1ccccc1Br)C(=O)N1CCCC1	3.1%	-37.1%	3.3	-3.2%
CC(CN)(NS(=O)(=O)c1ccccc1)c1ccccc1 (centres undefined)	-9.0%	-3.4%	nt	0.2%
CSc1ncccc1C(=O)OCCCC(=O)c1ccc(F)cc1	-1.6%	nt	nt	1.8%
Nn1c(SCC(=O)N2CCCCCC2)nnc1-c1ccncc1	-19.2%	-0.8%	-7.6	2.8%
CCC(C)NC(=O)NC(=O)CSc1nnc(-c2ccccc2F)n1C1CC1 (centres undefined)	1.1%	2.2%	nt	0.5%
COc1cccc(-c2nc(-c3ccncc3)no2)c1	-11.7%	-58.2%	nt	0.4%
O=C(NCc1ccccn1)c1ccc(OC2CCN(Cc3ccc(F)cc3F)CC2)cc1	-12.3%	8.1%	nt	-2.8%
COc1cc(C(F)(F)F)c(C(=O)N(C)Cc2cccc(Cl)c2)cn1	-9.7%	-2.8%	4.4	0.1%
Cc1nc2ccccn2c1-c1csc(Nc2cccc(O)c2)n1	-5.2%	-11.9%	0.7	1.6%
Cc1ccc(C(=O)NCCc2nnc3ccc(NCCCN4CCOCC4)nn23)cc1	?	0.0%	nt	?
COCc1cc(C)nc(OCC(=O)N/N=C/c2cc(C)n(-c3c(C)cccc3C)c2C)c1C#N	24.7%	7.1%	1.8	-3.2%
Cc1ccc(N=Cc2c(O)n(-c3nccs3)c(=O)c3ccccc23)c(C)c1	?	-6.5%	4.9	?
CN(C(=O)CSc1ncnc2sc3c(c12)CCCC3)C1CCS(=O)(=O)C1 (centres undefined)	0.6%	nt	nt	5.0%
Cc1c(C#N)sc2nc(-c3ccccc3)nc(N3CCCC3)c12	-3.6%	-1.2%	-7.8	-1.9%
COc1ccc([C@H]2/C=C\CN(S(=O)(=O)c3cccc4cccnc34)[C@@H](C)C(=O)N2Cc2ccc(F)cc2)cc1	-3.8%	nt	nt	-1.6%
COc1ccc(OC)c(NC(=O)NCCc2cccc(Cl)c2)c1	-8.0%	1.8%	6.0	-0.3%
O=C(Nn1c(COc2ccccc2)nc2ccccc2c1=O)C(Cl)(Cl)Cl	3.7%	-14.2%	nt	2.1%
N#Cc1ccsc1NC(=O)COc1ccc(-c2nnco2)cc1	-17.1%	-36.8%	3.7	?
CCCc1cc(NCC2CCCO2)n2c(nc3ccccc32)c1C#N (centres undefined)	?	11.0%	?	?
COc1ccc(S(=O)(=O)N2CCc3ccccc3C2)cc1OC	-2.0%	-19.6%	-26.2	3.9%
O=C(N/N=C/c1ccc(O)cc1)c1cc(C23CC4CC(CC(C4)C2)C3)[nH]n1	-4.8%	2.2%	-2.8	2.0%
O=C1c2ccsc2SCCN1Cc1ccc(Cl)cc1	0.1%	-5.3%	9.8	0.2%
COc1cccc(NC(=S)N(CCN2CCCCC2)Cc2ccco2)c1	-5.0%	-3.9%	-0.3	1.3%
CCOC(=O)c1cn(Cc2ccccc2)nc1-c1ccccc1	-17.4%	nt	nt	2.7%
Cc1cc(C)nc(NS(=O)(=O)c2ccc(NC(=O)c3ccc(S(=O)(=O)N(C)C)cc3)cc2)n1	2.2%	-4.2%	nt	?
COc1ccc(/C=C/C(=O)OCC(=O)Nc2ccc(Cl)cc2F)cc1S(=O)(=O)N1CCOCC1	0.1%	-7.7%	-1.8	-0.2%
CCOc1ccc(N(CC(=O)Nc2ccccc2)S(C)(=O)=O)cc1	0.4%	-26.6%	4.0	1.6%
CC(C)CN(C(=O)CC1OC(=O)c2ccccc21)c1c(N)n(Cc2ccccc2)c(=O)[nH]c1=O (centres undefined)	12.4%	nt	nt	0.8%
Cc1cc(C)n(C(=O)Cn2nc(C(F)F)cc2C)n1	-1.0%	-0.5%	2.7	-2.1%
CC(C)C1N(C(=O)N(C)C)CCN1S(=O)(=O)c1ccccc1 (centres undefined)	11.1%	-1.2%	nt	?
O=C(O)CNS(=O)(=O)c1cccc2nsnc12	-1.2%	1.3%	10.7	3.3%
COCCSc1ccccc1C(=O)NCc1ccco1	-4.0%	-0.9%	-3.0	-1.7%
O=c1c(C/C=C/c2ccccc2)c(O)ccn1Cc1ccc(Cl)cc1Cl	-10.2%	-0.2%	-5.3	-1.9%
CC(=O)Nc1ccc(S(=O)(=O)N2CCN=C2SCc2ccc([N+](=O)[O-])cc2)cc1	5.1%	16.8%	nt	6.4%
COc1cccc(CN2CCN(c3nc4nonc4nc3NC3CC3)CC2)c1	-11.1%	0.1%	-17.6	-1.8%
O=C(Oc1ccc(C(=S)N2CCOCC2)cc1Br)c1ccccc1F	20.2%	0.1%	-10.6	-0.8%
CCCOc1ccc(N2C(=O)CC(SC(=NCC)Nc3cccc(F)c3)C2=O)cc1 (centres undefined)	-5.4%	-11.9%	12.2	5.2%
COc1ccc(-c2cn3c(C)c(C(=O)Nc4cccc(NC(C)=O)c4)sc3n2)cc1	-4.7%	-13.8%	-17.8	2.3%
c1ccc2c(NCCc3c[nH]c4ccccc34)c3ccccc3nc2c1	14.6µM*	?	nt	?
